# Screening results (PubChem BioAssay)
# Cruzain Triton = inhibitors of Trypanosoma cruzi cruzain with detergent | P25779 | purified cruzain, Z-FR-AMC fluorescence, 0.01% Triton | Potency, µM, for the others: max response, negative = inhibition, usual class: inhibitors | 200,000 compounds, 0.43% hits | AID 1478;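 further: plate controls were neutral wells for no effect and buffer without enzyme for full effect; nearly all actives have a fitted effect of over 40% in size; top concentration of the series not given in the record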
# Target sequence (P25779 123-467 limits assumed): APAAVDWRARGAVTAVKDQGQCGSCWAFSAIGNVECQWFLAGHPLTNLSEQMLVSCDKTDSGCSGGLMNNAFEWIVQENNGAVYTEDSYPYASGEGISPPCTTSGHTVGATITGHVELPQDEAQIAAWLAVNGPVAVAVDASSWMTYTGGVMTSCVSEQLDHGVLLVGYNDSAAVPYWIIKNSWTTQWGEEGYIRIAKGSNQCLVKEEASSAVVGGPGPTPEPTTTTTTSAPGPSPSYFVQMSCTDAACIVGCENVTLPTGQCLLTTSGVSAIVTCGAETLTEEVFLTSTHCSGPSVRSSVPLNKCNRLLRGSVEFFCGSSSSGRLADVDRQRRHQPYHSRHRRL
#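 Cysteine protease activity tested under reducing, mildly acidic conditions (100 mM sodium acetate pH 5.5, 5 mM DTT) plus 0.01% Triton X-100. Cruzain 1.5 nM; substrate Z-FR-AMC 2 uM; 15 min compound preincubation at room temperature.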
# Marburg entry inh = inhibitors of Marburg virus binding or cell entry; Marburg virus pseudotyped entry inhibition, cell reporter; control for the full effect not named in the record; about a third of the inactives were read at about 46 µM; Potency, µM (doses to about 37.8 µM), for the others: at the top dose activity change, negative = inhibition, actives largely listed as inhibitors; 300,000 compounds, 1.8% hits; AID 540276; active = well fitted inhibition curve with a large enough effect; inconclusive = small, poorly fitted or top-dose-only effect, or effect the other way; inactive = flat fitted curve, though single readings scatter; tested in HEK293 cells; about a fifth of its hits are not listed in these tables; further: on the % scale 0 is the no-effect control and ±100 the full control effect; luciferase read-out
# 2A StopGo = lowers the luciferase signal of an FMDV 2A StopGo reporter. human cells with a luciferase reporter of 2A StopGo recoding; control for the full effect not named in the record. Potency, µM (highest dose often 57.9 µM), for inactives: top-dose signal change, negative = less light. 410,000 compounds, 1.2% hits. AID 1159524; active = well fitted falling curve with a large enough effect; inconclusive = small, poorly fitted or top-dose-only effect; inactive = no such curve, though single readings can be large or run the other way; tested in HEK293T cells; further: on the % scale 0 is the no-effect control and ±100 the full control effect; nearly all actives have a fitted effect of over 45% in size; luciferase light after 4 h
# SARS PLP yeast = blocks SARS-CoV papain-like protease in a yeast assay; S. cerevisiae expressing SARS-CoV PLpro, growth rescue; control for the full effect not named in the record; Potency, µM (doses to about 32.9 µM), for inactives: top-dose activity, positive = growth rescue; 330,000 compounds, 0.19% hits; AID 485353; active means well fitted rising curve with a large enough effect; inconclusive means small, poorly fitted or top-dose-only effect; inactive means no such curve, though single readings can be large or run the other way; further: 0% is about no effect; nearly all actives have a fitted effect of over 55% in size; growth read by luminescence after 48 h
# Cruzain inh noDet = blocks cruzain activity in detergent-free assay; P25779; Potency, µM, without a hit: max response, negative = inhibition, actives largely listed as inhibitors; 200,000 compounds, 2.3% hits; purified cruzain, Z-FR-AMC fluorescence, no detergent; AID 1476;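 further: plate controls were enzyme without inhibitor for no effect and buffer without enzyme for full effect; nearly all actives have a fitted effect of over 40% in size; top concentration of the series not given in the record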
#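 Detergent-free condition (0.00005% Triton X-100) in acetate buffer pH 5.5 with DTT. 1.5 nM enzyme and compound were pre-mixed 15 min, then 2 uM Z-FR-AMC substrate added; reaction progress from fluorescence change between first and third reads (60 s).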
# Lassa entry inh = Lassa virus entry inhibition; 300,000 compounds, 1.2% hits; Potency, µM (titrated, usually from 37.9 µM), for the others: top-dose activity change, negative = inhibition, usual class: inhibitors; Lassa virus pseudotype entry inhibition, cell reporter; control for the full effect not named in the record; active means well fitted inhibition curve with a large enough effect; inconclusive means small, poorly fitted or top-dose-only effect, or effect the other way; inactive means flat fitted curve, though single readings scatter; tested in HEK293 cells; further: on the % scale 0 is the no-effect control and ±100 the full control effect; nearly all actives have a fitted effect of over 50% in size; luciferase read-out
# RE007 growth inh = less growth of the S. pombe RE007 Vpr strain; 360,000 compounds, 0.21% hits; Potency, µM (titrated, usually from 92.2 µM), for the others: at the highest dose activity change, negative = less growth; S. pombe RE007 Vpr strain, BacTiter-Glo ATP luminescence, 24 h; control for the full effect not named in the record; AID 651644; active = well fitted falling curve with a large enough effect; inconclusive = small, poorly fitted or top-dose-only effect; inactive = no such curve, though single readings can be large or run the other way;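 further: on the % scale 0 is the no-effect control and ±100 the full control effect; nearly all actives have a fitted effect of over 50% in size; the assay follows cell death caused by Vpr and the record does not say whether a fall means rescue or toxicity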
#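 Fission yeast strain RE007, carrying one chromosomally integrated HIV-1 vpr copy, was seeded at OD 0.01 in PMG+AL medium with 23 nL pinned compound. After 24 h at 30 °C and 99% humidity, viability was read by BacTiter-Glo luminescence.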
# NS1 inh = blocks influenza NS1 protein function. S. cerevisiae slowed by influenza A NS1, growth recovery by OD600. Potency, µM (titrated, usually from 46.1 µM), inactives show at the top dose activity, positive = more growth. 270,000 compounds, 0.4% hits. AID 2326; active means well fitted rising curve with a large enough effect; inconclusive means small, poorly fitted or top-dose-only effect; inactive means no such curve, though single readings can be large or run the other way; further: nearly all actives have a fitted effect of over 50% in size
#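 Recovery from NS1-induced slow growth read by OD600 in budding yeast switched to galactose assay medium (pH 6.0, -URA) at 1:100 dilution. Compound 23 nl per well; the matching strain lacking NS1 serves as control.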
# An asterisk follows results filed as active; ? = inconclusive; / = no result given; & = joins results of further samples; [ ] = dose if it differs, or a comment. Unless noted, the call rests on the fitted dose curve; in most records, active means well fitted curve in the direction sought with a large enough effect; inconclusive means small, poorly fitted or top-dose-only effect, or another doubt; inactive means no such curve, though single readings can be large; an effect the other way counts as inactive or inconclusive. Potency means the concentration at half of the fitted maximal effect.
SMILES,Cruzain Triton,Marburg entry inh,2A StopGo,SARS PLP yeast,Cruzain inh noDet,Lassa entry inh,RE007 growth inh,NS1 inh
CCc1ccc(CN(Cc2ccco2)c2cnc(S(C)(=O)=O)nc2C(=O)Nc2c(C)cccc2C)cc1,-2.6%,?,0%,/,?,3%[46.1 µM],/,/
Cc1csc(NC(=O)c2ccccc2)n1,/,/,48%[activator],-11%,/,/,?,-9%
Cc1ccc(C(=O)NCCCN2CCOCC2)cc1Cl,/,/,32%,3%,/,/,7%,-18%
CCOP(=O)(NC(C)C)Oc1ccc(SC)c(C)c1 (stereo not drawn),0.9%,/,-25%,/,-2%,/,10%,/
CCCCOC(=O)Cn1nnc2sc(-c3ccccc3)cc2c1=O,-4.2%,24%[46.1 µM],-11%,/,-6%,14%[46.1 µM],/,/
COc1ccccc1CN1CC(C(=O)NCc2cccnc2)CC1=O (stereo not drawn),0.9%,?,/,1%,-14%,22%,0%,-13%
CCc1ccc(NS(=O)(=O)c2ccc3oc(=O)c4ncn(CC)c4c3c2)cc1,-10%,4%[46.1 µM],-13%,/,12%,6%[46.1 µM],/,/
CCc1ccc(-c2cn3c(n2)sc2cc(C(=O)NC4CCCCC4)ccc23)cc1,-2.0%,/,-7%,/,4%,-2%[46.1 µM],/,/
Cc1ccc(-c2nc3cc(Cl)ccc3o2)cc1NC(=O)COc1ccc(F)cc1,-0.8%,-1%[46.1 µM],8%,/,-6%,3%[46.1 µM],/,/
CCCCCC/C=C/c1ccc([C@H]2[C@H]3C=CC[C@@H](C)[C@@H]3C(=O)N2Cc2ccccc2)c(F)c1,/,/,?,2%,/,/,-14%,4%
Cc1nn(C)c(C(=O)N/N=C/c2ccccn2)c1[N+](=O)[O-],/,/,-15%,-10%,/,/,13%,-30%
CCc1nnc(NC(=O)CCC(=O)N2CCN(c3cccc(Cl)c3)CC2)s1,/,?,-2%,-5%,/,-10%[46.1 µM],0%,-1%
CCC(Sc1nccn1C)C(=O)Nc1cccc2ccccc12 (stereo not drawn),-1.2%,-3%[46.1 µM],12%,-3%,-13%,-3%,-22%,2%
CCCCCCn1c(O)c(C=NCCN2CCOCC2)c(=O)[nH]c1=O,-2.0%,-1%,-13%,3%,7%,1%,-2%,12%
COc1cccc(C(=O)Nc2cccc(-c3nc4ncccn4c3C)c2)c1,-0.1%,/,30%,/,17%,4%[46.1 µM],/,/
COc1ccc(N(CC(=O)N/N=C/c2ccco2)S(=O)(=O)c2ccccc2)cc1,-6.2%,12%,/,-6%,-1%,5%,4%,-11%
CCCCn1cnc(C(=O)OCC)c1N,-0.3%,?,39%[activator],11%,10%,?,-8%,0%
COc1ccc(OC)c(NC(=O)CCCc2nnc3n(C(C)C)c(=O)c4sccc4n23)c1,-0.1%,/,-10%,/,0%,9%[46.1 µM],/,/
CN(C(=O)CCN1C(=O)/C(=C/c2ccccc2)SC1=S)C1CCS(=O)(=O)C1 (stereo not drawn),/,?,-5%,0%,/,-7%[46.1 µM],6%,3%
Cc1cc(Nc2ccc(C(C)C)cc2)n2ncnc2n1,-2.7%,?,16%,-10%,-5%,-21%,26%,3%
COc1cc(/C=C(/C(=O)c2cccs2)c2nc3ccccc3[nH]2)cc(OC)c1O,-1.8%,-85%,14µM*,7%,?,?,-2%,5%
CC(C)C[C@H](NC(=O)[C@H](Cc1ccccc1)n1c(=O)[nH]c2ccccc2c1=O)C(=O)N1CCC[C@@H]1C(=O)O,/,/,-10%,8%,/,/,4%,19%
CC1CN(S(=O)(=O)c2cccc(C(=O)Nc3ccccc3N3CCCCC3)c2)CC(C)O1 (stereo not drawn),/,?,?,-3%,/,-28%,1%,/
COc1cccc([C@H]2Nc3ccc(S(=O)(=O)Nc4cc(C)ccc4C)cc3[C@H]3C=CC[C@H]32)c1,-8.0%,9%[46.1 µM],-24%,/,-28%,-1%[46.1 µM],/,/
CC(=O)c1ccc(NC(=S)NC(=O)Cc2ccc(Cl)cc2)cc1,/,9%[46.1 µM],-15%,1%,/,7%[46.1 µM],7%,4%
# Next part.
SMILES,Cruzain Triton,Marburg entry inh,2A StopGo,SARS PLP yeast,Cruzain inh noDet,Lassa entry inh,RE007 growth inh,NS1 inh
O=C(O)CCSSCCC(=O)O,-1.4%,/,-23%,3%,2%,/,1%,/
Cc1ccc(-c2nc3n(n2)C(=O)CC(c2ccc(C)cc2)S3)cc1 (stereo not drawn),-4.8%,3%[46.1 µM],-11%,/,-6%,9%[46.1 µM],/,/
CCOc1ccc(NC(=S)N2CCN(S(=O)(=O)c3ccc(C)cc3)CC2)cc1,/,-20%,34%[activator],-7%,/,-6%,-5%,-4%
CC(C)N1CCc2c(sc(NC(=O)c3ccc(S(=O)(=O)N4CCOCC4)cc3)c2C(N)=O)C1,-13%,/,-6%,19%,8%,/,1%,-41%
COC(=O)c1ccc(NC(=O)CSc2ccccn2)cc1,-1.1%,13%,32%[activator],-15%,6%,?,-15%,-1%
Cn1nc(C(F)(F)F)c(C(=O)Nc2ccc(F)cc2F)c1Sc1cccc(Cl)c1,-5.7%,?,-15%,4%,-8%,3%,12%,6%
Cn1c(N)c(C(=O)COC(=O)CCC2CCCC2)c(=O)n(C)c1=O,/,13%[46.1 µM],3%,-3%,/,2%,2%,/
COCCCNC(=S)NNC(=O)c1ccccn1,/,?,-6%,8%,/,?,7%,-3%
S=C(NCCCCc1ccccc1)NCc1ccccc1,/,/,50%[activator],1%,/,/,-12%,-104%
COC(=O)c1c(SC)nc2ccccc2c1OCc1cc(C)ccc1C,0.0%,/,-18%,/,-12%,?,/,/
Cc1ccc(OCC(=O)Nc2ccc(C)c(F)c2)c([N+](=O)[O-])n1,/,?,10%,2%,/,?,11%,/
Cc1ccc(C(C(=O)NC(C)(C)C)N(Cc2cccs2)C(=O)c2csnn2)cc1 (stereo not drawn),/,-19%,22%,/,/,7%,14%,/
CCc1cccc(C)c1NC(=O)c1cc(S(=O)(=O)N(C)Cc2ccccc2)ccc1F,0.9%,/,?,/,-14%,19%[46.1 µM],/,/
CN1C(=O)C(C)(C)c2cc(S(=O)(=O)NCC3CCC(C(=O)NC4CCCCC4)CC3)ccc21 (stereo not drawn),/,0%[46.1 µM],-10%,1%,/,14%[46.1 µM],6%,-7%
CCCOc1ccc(N2C(=O)CC(N(CCc3ccc(OC)c(OC)c3)C(=O)c3ccccc3)C2=O)cc1 (stereo not drawn),/,/,16%,-1%,/,/,-1%,-5%
Cc1ccc(CNCc2cccnc2)s1,/,/,?,1%,/,/,13%,1%
CN1CCN(NC(=O)c2cccc3ccccc23)CC1,-3.3%,-5%,7%,10%,-8%,-14%,16%,5%
CCOc1ccc(NC(=O)c2ccc(-n3cccn3)nc2)cc1,/,23%[46.1 µM],-7%,-1%,/,-1%,1%,/
COc1ccc(-c2csc(C3=C(O)CN(C(C)C)C3=N)n2)cc1OC,/,-17%[46.1 µM],-5%,-2%,/,?,8%,1%
Cc1cc(C(=O)O)cc(S(=O)(=O)Nc2ccccc2C(=O)NC2CC2)c1C,/,?,-10%,-3%,/,10%,-9%,/
Cc1ccc(NC(=O)NNC(=O)c2cccs2)cc1,1.5%,?,60%[activator],5%,-9%,?,-23%,0%
Cc1onc(-c2ccccc2)c1C(=O)N1CCCc2ccccc21,0.8%,-3%,0%,1%,-6%,9%,0%,1%
CCN(CC)S(=O)(=O)N1CCC(C(=O)NC2CCCC2)CC1,3.9%,4%,20%,-1%,6%,12%,4%,1%
CC(Oc1ccc2oc3ccccc3c2c1)C(=O)NC12CC3CC(CC(C3)C1)C2 (stereo not drawn),-4.5%,-6%,-12%,-18%,?,-23%,-21%,-19%
COC1CCCN(C(=O)c2ccc(OC3CCN(S(=O)(=O)N(C)C)CC3)cc2)C1 (stereo not drawn),/,-5%,3%,/,/,?,46%,7%
# (continued)
SMILES,Cruzain Triton,Marburg entry inh,2A StopGo,SARS PLP yeast,Cruzain inh noDet,Lassa entry inh,RE007 growth inh,NS1 inh
O=C(NCc1ccccn1)c1cc(-c2ccc(Cl)cc2)oc1C(F)(F)F,/,/,-26%,-14%,/,/,?,-1%
Cc1ccc2nc(NC(=O)c3ccc(-c4nc5ccccc5s4)s3)sc2c1,-20%,-5%,18%,-4%,4µM*,24%,9%,25%
COCCNC(=O)c1ccccc1-c1ccccc1C(=O)O,0.6%,34%,-25%,3%,-18%,0%,-2%,2%
CC(=O)c1c(C)[nH]c(C(=O)OCC(=O)Nc2cc(S(=O)(=O)N3CCCCC3)ccc2C)c1C,-2.2%,9.2µM*,?,-13%,9%,-9%,3%,4%
NS(=O)(=O)c1ccc(NC(=O)c2cccc3ccccc23)cc1,/,/,-14%,0%,/,/,4%,13%
CCCOc1ccccc1C1NC(=O)NC(C)=C1C(=O)OCc1ccccc1 (stereo not drawn),-8.6%,?,?,9%,-2%,-15%,10%,3%
COc1ccc(NC(=O)c2sc(-c3ccccc3)nc2C)c(OC)c1,/,/,0%,0%,/,/,-4%,-4%
COCCNC(C(=O)Nc1ccc(C)cc1[N+](=O)[O-])c1ccccc1 (stereo not drawn),/,22%[46.1 µM],16%,-7%,/,3%,-24%,/
COc1ccc(-n2c(=O)c3sc4ccccc4c3n(CC(=O)NC3CCCCC3)c2=O)cc1,-0.7%,-26%[46.1 µM],-9%,/,-1%,1%[46.1 µM],/,/
COc1ccc(CNC(=O)Nc2ccc(OC)cc2)cc1,6.1%,?,/,3%,-7%,23%,-1%,4%
O=C(Nc1ccccc1F)Nc1ccc([N+](=O)[O-])cc1Cl,/,-28%,10%,0%,/,-30%,-11%,-2%
O=C(CCNC(=O)C1CCN(S(=O)(=O)c2ccccc2)CC1)NCc1ccc(Cl)c(Cl)c1,/,/,-13%,-6%,/,/,5%,-14%
CCc1nn(CC(=O)N2CCN(c3cccc(Cl)c3)CC2)c(=O)c2cc3sccc3n12,-1.6%,?,-8%,/,3%,/,/,/
C=CCNC(=O)N1C2=NC(C(=O)OC)=C(C(=O)OC)[C@@H]3N(Cc4ccccc4)c4ccccc4[C@]23C[C@H]1C(=O)OC,/,3%&3%[14.2 µM],-18%,/,/,?,-1%,/
CC1CN(C(=O)c2ccc(-c3cccc(C(F)(F)F)c3)o2)CC(C)O1 (stereo not drawn),/,-22%,?,0%,/,-12%[46.1 µM],-8%,/
COc1ccc(/C=C2/C(=O)NC(=O)N(c3ccc(C)c(C)c3)C2=O)cc1CN1C(=O)c2ccccc2C1=O,-0.9%,?,?,?,24%,-16%,1%,-9%
